Yeast UUG start – alters start codon recognition fidelity in yeast; S. cerevisiae UUG-firefly luciferase reporter, luminescence/redox ratio; activity score, % at 18.7 µM; 350,000 tested, 0.13% active;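 active = replicate mean at a twofold rise or more, about +100% in these data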;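 also: firefly luciferase made from a UUG start codon reports start codon fidelity; reporter light over untreated wells divided by growth signal over untreated wells; some hits fall short of that in this replicate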
eIF4H FP inh – inhibitors of RNA binding by human eIF4H. eIF4H fluorescence polarization binding assay. inhibition, % at 35 µM. 290,000 tested, 0.94% active. AID 2012;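 active = 50% or more with normal probe brightness, or confirmed in later tests; about a fifth of its hits are not listed in these tables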;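 also: calls also rest on retests at 20 µM and on dose response follow-up; 0% = protein and probe with vehicle and 100% = probe without protein; strong numbers were not always called active; many hits fall short of the cut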
HIV Env fusion – inhibitors of HIV Env-mediated cell fusion; inhibition, % at 12.3 µM; HeLa-JRFL Env/CEM21 cell fusion, luciferase; AID 651610; 360,000 tested, 1.1% active;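 active = mean replicate inhibition score of at least 50 and every replicate individually at or above 50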;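 also: 0% = plate neutral controls and 100% = maraviroc near 300 nM; one replicate is shown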
Rce1 inhib – blocks yeast Ras-converting enzyme; Q03530; yeast membranes, quenched prenylated peptide cleavage fluorescence; calls only; 290,000 tested, 0.27% active; AID 2563;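 active = fall in fluorescence gain of 50% or more versus controls, with final raw signal at or below 3038400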;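 also: plate controls were neutral control wells for no effect and wells lacking membranes for full effect; tested at 10 µM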
Target sequence (Q03530 whole entry, looked up): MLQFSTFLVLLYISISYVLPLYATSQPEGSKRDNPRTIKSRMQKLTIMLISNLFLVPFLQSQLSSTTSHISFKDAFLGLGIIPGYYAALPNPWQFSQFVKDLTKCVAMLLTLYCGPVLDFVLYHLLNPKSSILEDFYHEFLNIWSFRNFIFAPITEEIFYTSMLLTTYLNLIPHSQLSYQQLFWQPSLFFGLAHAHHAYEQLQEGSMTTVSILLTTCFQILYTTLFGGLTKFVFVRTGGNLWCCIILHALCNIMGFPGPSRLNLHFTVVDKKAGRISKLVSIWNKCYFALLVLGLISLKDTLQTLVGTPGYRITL
MT1-MMP act inh – inhibitors of human MT1-MMP activation; P50281; HT1080 RFP-PRO-GFP cells, GFP/RFP ratio fluorescence, overnight; percent of plate control window, DMSO zero; GFP/RFP ratio change, % at 20 µM; 360,000 tested, 0.061% active; AID 651647;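 active = GFP/RFP ratio change of at least 30% with cell ATP level not reduced by more than half and red fluorescence within 50% of control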; also: strong numbers were not always called active
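Test system: HT1080 RFP-PRO-GFP cells; Benchmarks: DMSO and RFP-L50D-GFP cell wells; Timing: cells overnight before dosing, compound overnight, 37 °C, 5% CO2; Compound: one 20 µM compound dose with 1% DMSO; Read-out: GFP/RFP fluorescence ratio.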
CSC inhib – cancer stem cell inhibition. cancer stem cell-like cells viability, luminescence. inhibition, % at 7.5 µM. 300,000 tested, 1.1% active. AID 2717;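 active = mean at 75% or more and at least half the replicates too; tested in HMLE shEcad cells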;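 also: 0% = median of negative and 100% = median of positive control wells; the first replicate is given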
PABP polyA inh – PABP-poly(A) binding inhibition | PABP-poly(A) RNA binding, fluorescence polarization | inhibition, % at 35 µM | P11940 | 290,000 tested, 1% active;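 active = 50% or more with normal probe brightness, or confirmed in later tests; about a fifth of its hits are not listed in these tables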;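 also: calls also rest on retests at 20 µM and on dose response follow-up; controls were probe without protein and protein plus probe with vehicle; some compounds called inactive have numbers as strong as hits; many hits fall short of the cut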
MT1-MMP act inh RFP – second read-out of MT1-MMP act inh, no call of its own (marks repeat the call); RFP signal change, %; measured here: RFP expression control read;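 0 = vehicle wells; hits needed this value within 50% of zero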
Active calls of the source: *; i = inactive; · = no result given. Not a hit list; about 2.9% have a hit in one of these screens.

SMILES | Yeast UUG start | eIF4H FP inh | HIV Env fusion | Rce1 inhib | MT1-MMP act inh | MT1-MMP act inh RFP | CSC inhib | PABP polyA inh
CC(=O)c1ccc(NC(=S)NC(=O)Cc2ccc(Cl)cc2)cc1 | -11 | -9 | -17 | i | 5 | -1 | -9 | -2
CN(C)CCCNc1nc2cc(-c3cccc(C(F)(F)F)c3)sc2c(=O)n1C | -7 | · | 13 | · | 0 | -4 | · | ·
CCOc1ccc(NC(=S)N2CCN(S(=O)(=O)c3ccc(C)cc3)CC2)cc1 | -24 | -4 | -12 | i | 0 | -2 | -5 | 5
CC(C)N1CCc2c(sc(NC(=O)c3ccc(S(=O)(=O)N4CCOCC4)cc3)c2C(N)=O)C1 | 6 | -3 | 14 | i | 1 | 0 | -8 | -13
COC(=O)c1ccc(NC(=O)CSc2ccccn2)cc1 | -7 | -3 | -89 | i | -1 | 0 | -10 | 19
S=C(NCCCCc1ccccc1)NCc1ccccc1 | -22 | 12 | 0 | i | 3 | -1 | -4 | 6
COCCCNC(=S)NNC(=O)c1ccccn1 | · | 5 | 8 | i | -1 | 3 | -2 | 5
Cn1c(N)c(C(=O)COC(=O)CCC2CCCC2)c(=O)n(C)c1=O | · | 2 | 9 | i | -4 | 0 | 16 | 1
Cn1nc(C(F)(F)F)c(C(=O)Nc2ccc(F)cc2F)c1Sc1cccc(Cl)c1 | -20 | -5 | 22 | i | -11 | -10 | -4 | 3
CCC(Sc1nccn1C)C(=O)Nc1cccc2ccccc12 (stereo not given) | · | 3 | 10 | · | -5 | -4 | -16 | 15
COc1ccc(N(CC(=O)N/N=C/c2ccco2)S(=O)(=O)c2ccccc2)cc1 | -15 | 44 | · | i | -2 | 4 | -11 | 10
CCCCn1cnc(C(=O)OCC)c1N | · | -5 | -10 | · | 2 | 2 | -18 | -5
CN(C(=O)CCN1C(=O)/C(=C/c2ccccc2)SC1=S)C1CCS(=O)(=O)C1 (stereo not given) | -27 | 24 | -16 | i | 1 | -1 | 10 | -6
Cc1cc(Nc2ccc(C(C)C)cc2)n2ncnc2n1 | -6 | 0 | -7 | i | 3 | 3 | · | -9
COC1CCCN(C(=O)c2ccc(OC3CCN(S(=O)(=O)N(C)C)CC3)cc2)C1 (stereo not given) | 6 | -10 | -23 | i | 0 | -7 | -8 | 7
COCCNC(=O)c1ccccc1-c1ccccc1C(=O)O | -15 | -4 | · | i | 4 | 5 | 0 | 2
Cc1ccc2nc(NC(=O)c3ccc(-c4nc5ccccc5s4)s3)sc2c1 | 13 | 2 | 10 | · | 1 | 0 | 14 | 6
O=C(NCc1ccccn1)c1cc(-c2ccc(Cl)cc2)oc1C(F)(F)F | -19 | 0 | 0 | i | 3 | 0 | 2 | -9
COc1ccc(NC(=O)c2sc(-c3ccccc3)nc2C)c(OC)c1 | -16 | -1 | -1 | i | -1 | 3 | 2 | 4
CCCOc1ccccc1C1NC(=O)NC(C)=C1C(=O)OCc1ccccc1 (stereo not given) | -15 | -13 | · | i | 0 | -7 | 8 | -9
NS(=O)(=O)c1ccc(NC(=O)c2cccc3ccccc23)cc1 | -3 | -2 | 10 | i | 1 | 1 | -11 | 6
CC(=O)c1c(C)[nH]c(C(=O)OCC(=O)Nc2cc(S(=O)(=O)N3CCCCC3)ccc2C)c1C | -9 | 7 | 1 | i | 2 | -2 | -9 | -1
COCCNC(C(=O)Nc1ccc(C)cc1[N+](=O)[O-])c1ccccc1 (stereo not given) | 5 | -10 | 0 | i | 3 | 0 | -7 | -2
O=C(CCNC(=O)C1CCN(S(=O)(=O)c2ccccc2)CC1)NCc1ccc(Cl)c(Cl)c1 | -8 | 3 | 1 | i | -2 | -4 | -6 | -2
O=C(Nc1ccccc1F)Nc1ccc([N+](=O)[O-])cc1Cl | · | -5 | -13 | i | -7 | -14 | 16 | 2
COc1ccc(CNC(=O)Nc2ccc(OC)cc2)cc1 | 2 | 4 | · | i | 0 | 0 | -4 | 8
Cc1ccc(C(C(=O)NC(C)(C)C)N(Cc2cccs2)C(=O)c2csnn2)cc1 (stereo not given) | -5 | · | 79* | i | -1 | -1 | -11 | ·
Cc1ccc(OCC(=O)Nc2ccc(C)c(F)c2)c([N+](=O)[O-])n1 | -11 | · | -53 | · | 2 | -1 | · | ·
CCCOc1ccc(N2C(=O)CC(N(CCc3ccc(OC)c(OC)c3)C(=O)c3ccccc3)C2=O)cc1 (stereo not given) | · | -8 | 4 | i | 1 | -6 | -8 | -6
CN1C(=O)C(C)(C)c2cc(S(=O)(=O)NCC3CCC(C(=O)NC4CCCCC4)CC3)ccc21 (stereo not given) | 12 | -9 | 2 | i | 5 | -4 | -12 | 4
CN1CCN(NC(=O)c2cccc3ccccc23)CC1 | -10 | -3 | · | i | 6 | 4 | -11 | -11
Cc1ccc(CNCc2cccnc2)s1 | -2 | -5 | 9 | i | 0 | 3 | 1 | 3
Cc1ccc(NC(=O)NNC(=O)c2cccs2)cc1 | -9 | 8 | 6 | i | 2 | 4 | -6 | 2
Cc1cc(C(=O)O)cc(S(=O)(=O)Nc2ccccc2C(=O)NC2CC2)c1C | -15 | · | -3 | · | 1 | 2 | · | ·
COc1ccc(-c2csc(C3=C(O)CN(C(C)C)C3=N)n2)cc1OC | -7 | -6 | -23 | i | 9 | 0 | -15 | 1
CCOc1ccc(NC(=O)c2ccc(-n3cccn3)nc2)cc1 | · | 0 | -20 | i | 3 | -1 | -2 | -11
CC(Oc1ccc2oc3ccccc3c2c1)C(=O)NC12CC3CC(CC(C3)C1)C2 (stereo not given) | · | -12 | -2 | i | -6 | -1 | 51 | 12
CCN(CC)S(=O)(=O)N1CCC(C(=O)NC2CCCC2)CC1 | -8 | -6 | -31 | i | -4 | -2 | -1 | -5
Cc1onc(-c2ccccc2)c1C(=O)N1CCCc2ccccc21 | -12 | 0 | · | i | 6 | 1 | -5 | 7
Cn1ccnc1C(OC(=O)c1ccccc1)C(F)(F)F (stereo not given) | -5 | -2 | 3 | i | -2 | 1 | -9 | 2
CCOC(=O)C1(Cc2cccc(Cl)c2)CCCN(C(=O)c2ccnn2C)C1 (stereo not given) | -5 | -6 | 0 | i | -1 | -2 | -9 | 4
CCc1ccc(NC(=O)C2CCCN(S(=O)(=O)c3ccc4[nH]c(=O)ccc4c3)C2)cc1 (stereo not given) | -20 | -5 | 18 | i | 0 | -1 | -3 | 13
Fc1ccc(NC(=S)N2CCc3[nH]c4ccccc4c3C2)cc1 | -21 | -8 | -5 | i | 3 | -2 | 14 | -1
CCCn1c(=C(C#N)C#N)s/c(=C2\C=Cc3ccccc3N2CC)c1=O | -10 | 2 | · | · | 12 | 12 | · | 9
CCOc1cc(C(=S)N2CCCC2)ccc1OCC(=O)Nc1c(C)cc(C)cc1C | -11 | -9 | · | i | 1 | -1 | 4 | -6
CN1CCN(CCCNC(=O)c2ccc3c(c2)N(Cc2ccccc2)CCS3)CC1 | 3 | 7 | 19 | i | 3 | 0 | 42 | -1
O=C(NCCCc1ccccc1)c1cccc(NC(=O)C2CCC2)c1 | -9 | · | -26 | · | 0 | 0 | · | ·
O=C(Cn1c(C(=O)NCCCN2CCOCC2)cc2sccc21)c1ccccc1 | -7 | -6 | -26 | i | 2 | 2 | -6 | 0
CCc1ccccc1NC(=O)CCCN1C(=O)C2CC=CCC2C1=O (stereo not given) | -8 | -6 | 1 | i | 2 | 6 | -5 | -1
Cn1c(=O)n(C)c2cc(NS(=O)(=O)c3ccc(Cl)s3)ccc21 | -9 | 4 | -26 | i | 9 | 3 | -17 | -5

The results go on.
SMILES | Yeast UUG start | eIF4H FP inh | HIV Env fusion | Rce1 inhib | MT1-MMP act inh | MT1-MMP act inh RFP | CSC inhib | PABP polyA inh
C=CCNC(=O)N1C2=NC(C(=O)OC)=C(C(=O)OC)[C@@H]3N(Cc4ccccc4)c4ccccc4[C@]23C[C@H]1C(=O)OC | -14 | · | -2 | i | 4 | 2 | -1 | ·
CC1CN(C(=O)c2ccc(-c3cccc(C(F)(F)F)c3)o2)CC(C)O1 (stereo not given) | · | · | -19 | i | 0 | 0 | -8 | ·
COc1ccc2nc(-c3ccccc3)cc(C(=O)N3CCC3)c2c1 | 1 | · | · | · | 3 | 0 | -8 | ·
CCN(CC)P(=O)(Nc1cccc(C(F)(F)F)c1)c1ccc(N(C)C)cc1NC(=O)c1ccco1 (stereo not given) | · | 7 | 35 | i | -30 | -26 | 2 | 20
Clc1ccc2nc(CN3CCCCCC3)cn2c1 | -23 | -2 | -35 | i | 0 | 3 | -7 | 28
O=C(CCc1ccc(S(=O)(=O)NCc2ccccc2)cc1)NCC1CCCO1 (stereo not given) | · | -9 | 0 | i | 2 | 2 | · | -10
O=C(NCCc1ccccc1)c1c[nH]c2ccc(F)cc2c1=O | -30 | · | 3 | · | 6 | -9 | · | ·
CC(=NCCc1ccccc1)C1=C(O)COC1=O | -6 | 2 | · | i | -1 | 6 | 2 | 5
O=C(NCCCN1CCOCC1)c1ccc2ccccc2c1 | · | · | 2 | i | 2 | -1 | -5 | ·
O=C(CSc1ccccn1)N1CCN(c2cccc(Cl)c2)CC1 | -9 | 3 | -34 | i | 0 | -3 | 8 | -10
CCOc1ccc(NC(=O)CN(C)CC(=O)Nc2ccc(Br)cc2F)cc1OCC | · | 9 | -20 | i | 11 | 5 | -24 | -5
COc1cc2c(C(=O)O)c(C)n(C)c2c2ccccc12 | -19 | -5 | 20 | i | -3 | -2 | · | 15
O=C(CCN1C(=O)C2C3C=CC(C3)C2C1=O)Nc1ccc2ncccc2c1 (stereo not given) | 12 | -19 | · | i | 3 | 1 | -6 | -8
Cc1ccc(CN2C(=NC(=O)CCC(=O)O)SC3CS(=O)(=O)CC32)cc1 (stereo not given) | · | 2 | -9 | i | -3 | 1 | -18 | -6
O=c1c(Cc2c(F)cccc2Cl)c(O)ccn1CCc1ccccn1 | · | 6 | 1 | i | 0 | 0 | 0 | -3
CCCNC(=O)Nc1ccc(C(F)(F)F)cc1 | · | -2 | 7 | i | 7 | 7 | 8 | 3
CCCCN(C(=O)c1[nH]c(C)c(C(=O)OCC)c1C)c1c(N)n(CCCC)c(=O)[nH]c1=O | · | · | 3 | i | 1 | 1 | -9 | ·
O=C(NCCN1CCOCC1)c1ccc2c(c1)N(Cc1c(F)cccc1Cl)C(=O)c1ccccc1S2 | -12 | -1 | -18 | i | -1 | -2 | 5 | 2
COC(=O)c1ccc2c(=O)[nH]c(CSc3nnc(C(F)(F)F)n3C)nc2c1 | · | 3 | -3 | i | -3 | -2 | · | -6
Cc1cc([N+](=O)[O-])ccc1NCc1ccc2ccccc2c1 | -17 | -3 | · | i | 1 | -3 | -7 | -1
CSCC(=O)N1CCC(n2nccc2NC(=O)CCc2ccccc2)CC1 | -2 | -12 | 0 | i | 0 | 2 | -10 | 15

Among those listed so far, these contain an aryl methoxy group.
SMILES | Yeast UUG start | eIF4H FP inh | HIV Env fusion | Rce1 inhib | MT1-MMP act inh | MT1-MMP act inh RFP | CSC inhib | PABP polyA inh
COc1ccc(N(CC(=O)N/N=C/c2ccco2)S(=O)(=O)c2ccccc2)cc1 | -15 | 44 | · | i | -2 | 4 | -11 | 10
COc1ccc(NC(=O)c2sc(-c3ccccc3)nc2C)c(OC)c1 | -16 | -1 | -1 | i | -1 | 3 | 2 | 4
COc1ccc(CNC(=O)Nc2ccc(OC)cc2)cc1 | 2 | 4 | · | i | 0 | 0 | -4 | 8
CCCOc1ccc(N2C(=O)CC(N(CCc3ccc(OC)c(OC)c3)C(=O)c3ccccc3)C2=O)cc1 (stereo not given) | · | -8 | 4 | i | 1 | -6 | -8 | -6
COc1ccc(-c2csc(C3=C(O)CN(C(C)C)C3=N)n2)cc1OC | -7 | -6 | -23 | i | 9 | 0 | -15 | 1
COc1ccc2nc(-c3ccccc3)cc(C(=O)N3CCC3)c2c1 | 1 | · | · | · | 3 | 0 | -8 | ·
COc1cc2c(C(=O)O)c(C)n(C)c2c2ccccc12 | -19 | -5 | 20 | i | -3 | -2 | · | 15
